Assay outcomes deposited in PubChem BioAssay by several laboratories.
INS promoter inh: TRM-6 insulin promoter activity inhibition; TRM-6 cells (human fetal islet line), insulin promoter-eGFP reporter, imaging; reporter expression induced with tamoxifen; inhibition, % at 2 µM; 130,000 compounds, 0.9% hits; AID 1273;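 active means inhibition above the mean plus 3 SD, with well images judged a real hit on visual review, cut at about 60% in these data, passing the limit was not always enough; inconclusive means inhibition over the cutoff but images rejected on review; inactive means inhibition not above the cutoff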
RGS16-Gao: modulates binding between human RGS16 and Galphao; binding response (% of control), % at 10 µM; 220,000 compounds, 0.38% hits; bead-based flow cytometry RGS16-Galphao binding, fluorescence; actives lie on both sides; O15492+P09471;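 active means below 25% or above 175%, edge rows of some plates excepted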;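 further: Galphao activated by GDP with aluminum fluoride before binding; 100% = wells without compound and 0% = beads without RGS; some results beyond the cut were filed as inactive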
GALR2 agonist: GALR2 (human) receptor agonism | GALR2-expressing cells, agonist activation read-out | activation, %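 (tested at 5 µM)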 | 140,000 compounds, 0.48% hits | AID 803;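 active means above mean plus 3 SD of all compounds, about 5% in these data, not always enough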;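 further: 0% = vehicle buffer wells and 100% = reference agonist at full effect; tested in CHO reporter cells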
PKD1 inh: blocks activity of human protein kinase D1 | AID 797 | Q15139 | 200,000 compounds, 0.056% hits | PKD1 kinase fluorescence polarization assay | inhibition, %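 (about 10 µM by stock and volumes)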;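 active means inhibition of 50% or more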;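 further: controls were vehicle for no effect and a reference inhibitor for full effect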
Target sequence (Q15139 whole entry, looked up): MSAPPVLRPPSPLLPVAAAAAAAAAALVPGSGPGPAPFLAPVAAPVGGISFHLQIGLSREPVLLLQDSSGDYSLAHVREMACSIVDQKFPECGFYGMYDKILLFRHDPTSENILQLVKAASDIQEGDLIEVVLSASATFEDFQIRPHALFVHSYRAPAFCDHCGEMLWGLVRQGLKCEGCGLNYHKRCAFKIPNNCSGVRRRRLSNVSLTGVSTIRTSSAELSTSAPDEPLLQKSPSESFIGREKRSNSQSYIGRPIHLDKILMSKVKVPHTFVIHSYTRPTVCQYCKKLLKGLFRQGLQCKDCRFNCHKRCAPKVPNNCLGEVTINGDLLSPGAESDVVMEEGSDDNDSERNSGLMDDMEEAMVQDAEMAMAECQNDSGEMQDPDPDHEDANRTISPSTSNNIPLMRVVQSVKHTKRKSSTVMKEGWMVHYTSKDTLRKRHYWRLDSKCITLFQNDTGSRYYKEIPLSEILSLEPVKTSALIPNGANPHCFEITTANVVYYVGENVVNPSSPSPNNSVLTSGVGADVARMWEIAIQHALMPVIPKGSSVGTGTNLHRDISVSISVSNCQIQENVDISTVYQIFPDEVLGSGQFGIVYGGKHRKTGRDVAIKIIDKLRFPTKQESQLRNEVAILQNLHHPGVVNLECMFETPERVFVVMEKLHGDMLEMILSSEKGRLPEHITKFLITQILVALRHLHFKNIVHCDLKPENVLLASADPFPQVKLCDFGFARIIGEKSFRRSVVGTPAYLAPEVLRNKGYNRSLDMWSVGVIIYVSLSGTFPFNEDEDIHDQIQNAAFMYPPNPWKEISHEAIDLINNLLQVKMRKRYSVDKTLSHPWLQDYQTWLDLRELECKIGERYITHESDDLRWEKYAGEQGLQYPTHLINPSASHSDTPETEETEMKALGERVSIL
HSV replic up: HSV replication enhancement; 220,000 compounds, 0.005% hits; HSV replication augmentation in cells, fold increase; maximum fold increase;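 active means peak rise of 1.5-fold or more in the series; inconclusive means self-fluorescent or not available for retest; tested in PC3 cells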;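 further: first round at 10 µM; read as green reporter fluorescence; hits show the peak of a series up to 25 µM; 1 = signal of infected wells without compound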
INS promoter inh cell count: also measured in INS promoter inh; calls as there; normalized cell count, %; measured here: cell count, toxicity; reference of the scale not given here;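 cells exposed to compound for 48 h; stained nuclei by imaging scaled within each plate; lower means fewer cells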
HSV replic up primary fold: second read-out of HSV replic up, no call of its own (marks repeat the call); fold increase; compound at 10 µM; measured here: primary screen fold increase 10 uM; tested in PC3 cells;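 GFP signal in the first replicate; 1 = infected wells without compound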
* hit, by the source's call; i = inactive; ? = inconclusive; . = no result given.

SMILES | INS promoter inh | INS promoter inh cell count | RGS16-Gao | GALR2 agonist | PKD1 inh | HSV replic up | HSV replic up primary fold
CCSC1=C(C#N)C(c2cccs2)C(C(=O)OC)=C(C)N1 (configuration not stated) | . | . | 105 | -2.4 | -2 | i | 0.92
Cn1nc(C2CC2)cc1NC(=O)CC(CC(=O)O)c1ccccc1 (configuration not stated) | . | . | 87 | . | . | i | 1
COC(=O)C(Sc1nc(C)cc(C)c1C#N)c1ccccc1 (configuration not stated) | -14 | 89 | 101 | -2.0 | -10 | i | 1.1
Cn1[nH]c(C(F)(F)F)c(C=NCc2ccc(Cl)cc2)c1=O | . | . | 99 | . | -5 | i | 0.68
CC(=O)NCCOc1nc(N2CCCCC2)nc(N2CCCCC2)n1 | . | . | 104 | . | -6 | i | 0.98
S=C(Nc1cccnc1)NC1CCCCCCC1 | -34 | 102 | 101 | 0.2 | -11 | i | 0.92
CN(CC(=O)OCC(=O)NCc1ccccc1)S(=O)(=O)c1ccc(Cl)cc1 | 13 | 115 | 91 | -2.3 | -2 | i | 0.9
Cc1cc(C)nc(NC(=S)Nc2ccccc2)n1 | . | . | 93 | . | 3 | i | 1
Cc1c(Cc2ccccc2)sc(NC(=O)/C=C/c2cccc3ccccc23)c1C(N)=O | . | . | 96 | 1.6 | -5 | i | 0.8
COC(=O)COc1ccc(S(=O)(=O)NCCC2=CCCCC2)cc1 | 15 | 91 | 115 | -0.3 | -4 | i | 0.98
O=C(Nc1ccc(S(=O)(=O)N2CCCC2)cc1)c1ccc(CN2CCOCC2)cc1 | . | . | 106 | -0.9 | 7 | . | .
Cn1c(=O)c2c(SCCN3CCOCC3)nc(C3CCCC3)nc2n(C)c1=O | 9 | 89 | 110 | . | 3 | i | 0.87
Cc1ccc(C(=O)C[n+]2cc(Br)cc(Br)c2)cc1 | . | . | 102 | . | . | i | 0.92
Cc1ccc(NC(=O)Nc2ccc3c(c2)nc(C)n3C)cc1C | . | . | 107 | . | -1 | i | 1.1
O=C(Nc1nnc(COc2ccc(Br)cc2)s1)c1ccco1 | . | . | 96 | . | . | i | 0.7
CC(NC(=O)/C=C/c1ccccc1)c1ccccc1 (configuration not stated) | . | . | 105 | . | -14 | i | 1
CSc1nccc(N2CCN(c3ccc(F)cc3)CC2)n1 | -27 | 63 | 86 | -2.0 | -8 | i | 0.98
CC(C)(C)c1cc(OS(C)(=O)=O)ccc1O | . | . | 107 | . | -1 | i | 1
O=C(CCCn1c(SCC(=O)NC2CCCCC2)nc2ccccc2c1=O)NCC1CCCO1 (configuration not stated) | 50 | 129 | 96 | 0.2 | 6 | i | 0.88
CCOC(=O)N1CCN(c2ccc3nnnn3n2)CC1 | -45 | 82 | 101 | -2.6 | 10 | i | 0.94
CCOc1ccc(CC2S/C(=N/c3ccccn3)NC2=O)cc1 (configuration not stated) | . | . | 98 | 1.7 | -16 | i | 0.98
COc1ccc(-c2nnn(CC(=O)N(C3CCCC3)C(C)C(=O)NC3CCCC3)n2)cc1OC (configuration not stated) | . | . | 110 | -0.8 | -13 | i | 0.94
O=C(O)COc1ccccc1/C=N/NC(=O)CSc1nnc(SCc2ccc(Cl)cc2)s1 | . | . | 99 | . | . | i | 1
O=C(NCc1cccnc1)c1cc(Sc2ccccc2Cl)nc2ccccc12 | -30 | 72 | 93 | -0.5 | 9 | i | 0.96
C=CCOC(=O)C(=O)/C=C/c1csc2ccccc12 | . | . | 94 | . | -10 | i | 0.78
Cc1cc(C(=O)CSC(C)c2nc3ccccc3c(=O)[nH]2)c(C)n1C (configuration not stated) | . | . | 105 | -1.1 | 1 | . | .
CC(=O)c1ccc(-n2c(-c3cc(-c4ccco4)[nH]n3)n[nH]c2=S)cc1 | 11 | 153 | 102 | 0.1 | 7 | ? | .
Cc1ccc(NC(=O)Nc2ccccc2)c(Br)c1 | -202 | 136 | 105 | -0.6 | -7 | i | 1.3
COc1ccc2nc(NC(=O)c3ccccc3-c3ccccc3C(=O)O)sc2c1 | 36 | 85 | 105 | . | 2 | i | 0.99
COc1cccc(C2C(C#N)=C(N)Oc3c2oc(CO)cc3=O)c1 (configuration not stated) | 12 | 91 | 104 | -0.8 | 10 | . | .
O=C(CCCn1c(=S)[nH]c2cc3c(cc2c1=O)OCO3)N1CCN(C2CCCCC2)CC1 | -4 | 86 | 106 | -2.0 | 0 | i | 0.76
O=C(CC1c2ccccc2Oc2ccccc21)Nc1ccccc1F | 15 | 97 | 99 | -1.2 | -11 | i | 0.96
COc1ccc(-c2cc(C(=O)N3CCN(c4ccccc4)CC3)c3ccccc3n2)cc1 | . | . | 121 | . | 7 | i | 0.68
COCCCNc1nc2nonc2nc1N(C)CC1CCCN1C (configuration not stated) | . | . | 105 | . | -5 | i | 1.1
COc1ccc(CCNC(=O)c2cc(-c3ccccc3)on2)cc1OC | 35 | 70 | 101 | -1.7 | -1 | i | 0.8
CCCc1cc(=O)[nH]c(Nc2ccc(N3CCCCC3)cc2)n1 | -80 | 151 | 122 | -1.1 | 6 | i | 0.96
CCCCn1nnnc1SCC(=O)N1CCOCC1 | 58 | 70 | 101 | -0.4 | -2 | i | 1
Fc1ccc(-c2ccc(/C=N\n3cnnc3)o2)cc1Cl | -14 | 129 | 98 | -1.7 | -13 | i | 0.87
Cc1ccc(S(=O)(=O)Cn2nnnc2C(c2ccc(F)cc2)N2CCC(C(N)=O)CC2)cc1 (configuration not stated) | . | . | 99 | -2.2 | -11 | i | 1
COc1ccc(-n2nc(C(=O)NCC(=O)Nc3cccc(NC(C)=O)c3)c3ccccc3c2=O)cc1 | . | . | 104 | . | -12 | i | 1
Cc1nn(-c2cccc(Cl)c2)c2nc(-c3ccncc3)cc(C(=O)N3CCOCC3)c12 | 40 | 107 | 112 | . | -4 | i | 0.71
COc1ccc(-c2nnc(SCc3ccccc3)n2N)cc1 | . | . | 89 | -0.6 | 21 | i | 0.95
N#Cc1ccsc1NC(=O)COC(=O)c1cc2ccccc2cc1O | 35 | 120 | 110 | -1.3 | -9 | i | 1.2
CCN(CC)C(=O)c1sc(NC(=O)c2ccoc2C)c(C(=O)OC)c1C | -65 | 83 | 106 | 0.0 | -10 | i | 0.98
NC(=S)N/N=C/c1ccccc1O | . | . | 103 | . | . | i | 0.79
CNC(=O)c1c(Cl)cnn1-c1ccc(C)cc1 | . | . | 96 | . | 5 | i | 1.1
Cc1cc(=O)n(CC(=O)O)c2ccccc12 | -17 | 90 | 182 | . | 0 | i | 0.82
COc1ccc(C(c2sc3nc(C)nn3c2O)N2CCCCC2)cc1 (configuration not stated) | . | . | 102 | 0.5 | 2 | i | 0.94
CC(C)NCC(O)COCCOc1ccc(Cl)cc1 (configuration not stated) | . | . | 108 | . | . | i | 0.97
CC1(C)Cc2noc(N)c2C(C)(C)N1OC(=O)c1ccccc1 | 5 | 104 | 102 | -3.1 | -4 | i | 1.1
CCCCNC(=O)CSc1nnc(Cc2ccccc2)n1CC | 44 | 119 | . | -0.6 | -2 | i | 0.81
CCOC(=O)c1cc2c(ccn2C)n1CC(=O)N1CCN(c2ccccc2OC)CC1 | . | . | -35 | 0.0 | 0 | i | 0.86
CN(C(=O)COC(=O)c1ccc[nH]c1=O)C1CCCCC1 | . | . | 100 | . | 0 | i | 1.1
COc1cccc(C2CC(c3ccccc3OC)n3ncnc3N2)c1 (configuration not stated) | . | . | 101 | -0.3 | -3 | i | 0.96
CC1(C)C(=O)C2(CCCC2)C(=O)OC1c1ccco1 (configuration not stated) | -45 | 151 | 158 | -2.9 | 3 | i | 1
CCCn1cnc2c(c1=O)c1nc3ccccc3nc1n2Cc1ccccc1OC | -3 | 81 | 102 | -0.3 | -9 | i | 0.98
CCOC(=O)N1CCC(NC(=O)CCc2cn(C)c3ccccc23)CC1 | . | . | 102 | -3.5 | 0 | i | 0.97
CC(C)NC(=S)NCc1cccnc1 | . | . | 98 | -0.4 | 5 | i | 0.97
COc1ccc(/C=C2\CCCC(C(=O)C(F)(F)F)=C2O)cc1OC | 5 | 106 | 104 | . | -5 | i | 0.86
O=C(c1ccc(-n2cccc2)cc1)N1CCN(Cc2ccccc2)CC1 | -32 | 101 | 112 | -2.0 | -5 | i | 0.86

Look-ups from the entries so far:
Value for `CNC(=O)c1c(Cl)cnn1-c1ccc(C)cc1` in PKD1 inh: 5
Value for `CCN(CC)C(=O)c1sc(NC(=O)c2ccoc2C)c(C(=O)OC)c1C` in INS promoter inh: -65
Value for `COc1cccc(C2CC(c3ccccc3OC)n3ncnc3N2)c1` (configuration not stated) in GALR2 agonist: -0.3
Value for `Cc1cc(=O)n(CC(=O)O)c2ccccc12` in PKD1 inh: 0
Value for `CCOC(=O)N1CCC(NC(=O)CCc2cn(C)c3ccccc23)CC1` in GALR2 agonist: -3.5

Some of these compounds in order of formula weight, falling:
SMILES | INS promoter inh | INS promoter inh cell count | RGS16-Gao | GALR2 agonist | PKD1 inh | HSV replic up | HSV replic up primary fold
COc1ccc(-c2nnc(SCc3ccccc3)n2N)cc1 | . | . | 89 | -0.6 | 21 | i | 0.95
CN(C(=O)COC(=O)c1ccc[nH]c1=O)C1CCCCC1 | . | . | 100 | . | 0 | i | 1.1
CC(C)NCC(O)COCCOc1ccc(Cl)cc1 (configuration not stated) | . | . | 108 | . | . | i | 0.97

Returning to the listing, starting 3 compounds before the break.
SMILES | INS promoter inh | INS promoter inh cell count | RGS16-Gao | GALR2 agonist | PKD1 inh | HSV replic up | HSV replic up primary fold
CC(C)NC(=S)NCc1cccnc1 | . | . | 98 | -0.4 | 5 | i | 0.97
COc1ccc(/C=C2\CCCC(C(=O)C(F)(F)F)=C2O)cc1OC | 5 | 106 | 104 | . | -5 | i | 0.86
O=C(c1ccc(-n2cccc2)cc1)N1CCN(Cc2ccccc2)CC1 | -32 | 101 | 112 | -2.0 | -5 | i | 0.86
CNc1nc(C)c(C(C)(C)C)s1 | . | . | 99 | . | . | i | 0.95
COc1ccc(NS(=O)(=O)c2cccc(C(=O)N/N=C/c3ccc4c(c3)OCCO4)c2)cc1 | 39 | 112 | 100 | . | 7 | i | 1.1
Cc1ccc(C(=O)NC(=S)Nc2cccc(NC(=O)c3ccccc3Cl)c2)cc1[N+](=O)[O-] | -31 | 133 | 42 | 0.3 | 8 | i | 0.98
COCCn1c(SCC(=O)Nc2sccc2C(N)=O)nc2cc(Cl)ccc2c1=O | 26 | 169 | 100 | 0.0 | -7 | i | 1
O=C(NCCO)c1ccc(-c2nnc(N3CCOCC3)c3ccccc23)cc1 | 9 | 122 | 104 | -0.5 | 3 | i | 1
C#CCn1ccc(O)c(Cc2c(F)cccc2Cl)c1=O | -24 | 43 | 97 | . | -2 | i | 1.1
CC(C)(C)NC(=O)NC(=O)Cn1cc(C(F)(F)F)ccc1=O | . | . | 93 | -0.8 | 10 | i | 0.92
CN(C)C(=O)c1cn(-c2ccccc2)nc1-c1cc2ccccc2o1 | . | . | 131 | . | -5 | i | 0.98
CCN(CC)Cc1c(O)ccc2c(=O)c(Oc3ccccc3OC)coc12 | 20 | 86 | 103 | -1.4 | 3 | i | 0.81
Cc1ccc(OCC(=O)Nc2ccccc2N2CCCC2)c(C)c1 | 0 | 122 | 93 | . | 7 | i | 1.2
C=CCN1C(=O)c2oc3ccccc3c(=O)c2C1c1ccc(O)c(OC)c1 (configuration not stated) | . | . | 103 | -2.4 | 0 | . | .
CCC(Sc1nc2ccccc2c(=O)n1CC1CCCO1)C(=O)NCc1cccnc1 (configuration not stated) | 0 | 172 | 96 | -1.2 | -4 | i | 0.78
N#CCc1ccc(NC(=O)/C=C/c2ccc([N+](=O)[O-])o2)cc1 | -440 | 11 | 92 | . | -4 | i | 0.62
CNCc1cn2cc(Cl)ccc2n1 | . | . | 102 | -1.3 | 9 | i | 0.98
COc1ccc(-c2c[n+]3c(n2-c2ccccc2)CCCCC3)cc1 | . | . | 113 | -0.9 | -4 | i | 1.1
Cc1ccccc1-n1c(=O)cc(N2CC(C)OC(C)C2)[nH]c1=O (configuration not stated) | 27 | 150 | 105 | -1.2 | 2 | i | 1.1
